High-throughput results as filed in PubChem BioAssay.
PKD1 kinase inh = blocks activity of human protein kinase D1 | Q15139 | PKD1 kinase fluorescence polarization assay | inhibition, %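 (about 10 µM by stock and volumes)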 | 200,000 tested, 0.056% active;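 active = inhibition of 50% or more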;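 note: controls were vehicle for no effect and a reference inhibitor for full effect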
RGS16-Gao HTS = RGS16-Galphao interaction regulator (human); 220,000 tested, 0.38% active; AID 1441; bead-based flow cytometry RGS16-Galphao binding, fluorescence; actives lie on both sides; binding response (% of control), % at 10 µM;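 active = below 25% or above 175%, edge rows of some plates excepted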;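 note: Galphao activated by GDP with aluminum fluoride before binding; 100% = wells without compound and 0% = beads without RGS; some results beyond the cut were filed as inactive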
Target sequence (O15492 whole entry, looked up): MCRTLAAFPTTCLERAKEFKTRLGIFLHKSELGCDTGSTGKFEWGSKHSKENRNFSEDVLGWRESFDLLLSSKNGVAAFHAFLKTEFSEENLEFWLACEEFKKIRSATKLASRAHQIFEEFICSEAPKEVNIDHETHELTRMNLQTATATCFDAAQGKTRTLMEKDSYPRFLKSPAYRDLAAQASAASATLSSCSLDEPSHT
Target sequence (P09471 whole entry, looked up): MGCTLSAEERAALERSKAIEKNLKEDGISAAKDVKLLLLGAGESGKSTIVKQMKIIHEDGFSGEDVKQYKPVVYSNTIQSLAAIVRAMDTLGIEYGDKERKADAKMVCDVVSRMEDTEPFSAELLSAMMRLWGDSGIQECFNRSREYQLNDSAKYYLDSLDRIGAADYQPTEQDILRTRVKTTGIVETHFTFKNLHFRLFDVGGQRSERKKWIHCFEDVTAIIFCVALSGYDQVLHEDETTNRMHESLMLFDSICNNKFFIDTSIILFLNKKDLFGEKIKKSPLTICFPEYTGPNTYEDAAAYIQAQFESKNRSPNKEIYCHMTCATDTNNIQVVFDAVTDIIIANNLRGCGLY
GALR2 agonist = agonists of human galanin receptor 2 (GALR2). GALR2-expressing cells, agonist activation read-out. activation, %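 (tested at 5 µM)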. 140,000 tested, 0.48% active. AID 803;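 active = above mean plus 3 SD of all compounds, about 5% in these data, not always enough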;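 note: 0% = vehicle buffer wells and 100% = reference agonist at full effect; tested in CHO reporter cells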
Target sequence (O43603 whole entry, looked up): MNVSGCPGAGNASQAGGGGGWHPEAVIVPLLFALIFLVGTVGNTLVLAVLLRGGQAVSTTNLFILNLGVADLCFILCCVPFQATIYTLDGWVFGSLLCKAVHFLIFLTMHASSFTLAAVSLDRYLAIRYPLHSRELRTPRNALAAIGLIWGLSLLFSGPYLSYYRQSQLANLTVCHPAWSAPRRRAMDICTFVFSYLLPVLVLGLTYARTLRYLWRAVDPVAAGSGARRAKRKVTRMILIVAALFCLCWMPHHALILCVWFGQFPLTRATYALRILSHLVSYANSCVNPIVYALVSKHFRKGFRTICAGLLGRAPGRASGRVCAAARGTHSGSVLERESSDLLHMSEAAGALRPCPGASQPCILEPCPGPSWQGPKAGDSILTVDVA
HSV replic up = HSV replication enhancement | 220,000 tested, 0.005% active | AID 1956 | HSV replication augmentation in cells, fold increase | maximum fold increase;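 active = peak rise of 1.5-fold or more in the series; tested in PC3 cells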;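 note: first round at 10 µM; read as green reporter fluorescence; hits show the peak of a series up to 25 µM; 1 = signal of infected wells without compound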
Insulin prom inh = TRM-6 insulin promoter activity inhibition | TRM-6 cells (human fetal islet line), insulin promoter-eGFP reporter, imaging; reporter expression induced with tamoxifen | inhibition, % at 2 µM | 130,000 tested, 0.9% active | AID 1273;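 active = inhibition above the mean plus 3 SD, with well images judged a real hit on visual review, cut at about 60% in these data, passing the limit was not always enough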
Insulin prom inh cell count = further read-out of Insulin prom inh, marked with its call; normalized cell count, %; measured here: cell count, toxicity; reference of the scale not given here;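 cells exposed to compound for 48 h; stained nuclei by imaging scaled within each plate; lower means fewer cells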
HSV replic up primary fold = second read-out of HSV replic up, no call of its own (marks repeat the call); fold increase; compound at 10 µM; measured here: primary screen fold increase 10 uM; tested in PC3 cells;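 GFP signal in the first replicate; 1 = infected wells without compound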
* = called active by the depositor; i = inactive; . = not tested or not shown; [ ] = dose if it differs, or a comment.

The first seven compounds as a preview:
SMILES | PKD1 kinase inh | RGS16-Gao HTS | GALR2 agonist | HSV replic up | HSV replic up primary fold | Insulin prom inh | Insulin prom inh cell count
Cc1ccc(-n2c(=O)[nH]c3c(oc4ccccc43)c2=O)cc1 | -9 | 100 | . | i | 0.89 | 28 | 123
CCN(CC)S(=O)(=O)c1ccc(C)c(NC(=O)COC(=O)C=C(C)C)c1 | . | 94 | . | i | 1 | . | .
O=C1/C(=C\c2ccc3ccccc3c2)CCCc2ccccc21 | -7 | 103 | -0.3 | i | 0.52 | 5 | 233
O=C(NCc1ccccc1)C1=C[C@H](c2coc3ccccc3c2=O)C[C@H](OCCCCO)O1 | 3 | 102 | . | i | 0.99 | . | .
COc1ccc(NC(=O)CC(NCCc2ccccc2)C(=O)O)c(OC)c1 (stereo not given) | 5 | 101 | -0.4 | i | 1.1 | 36 | 106
COC(=O)CCS(=O)(=O)c1ccc(NC(C)=O)cc1 | 0 | 93 | -1.0 | i | 0.81 | 3 | 146
COC(=O)c1c(NC(=O)COC(=O)CCS(=O)(=O)c2ccc(C)cc2)sc(C)c1C | 5 | 255*[activator] | -0.5 | i | 0.92 | 27 | 98

Results, from the start:
SMILES | PKD1 kinase inh | RGS16-Gao HTS | GALR2 agonist | HSV replic up | HSV replic up primary fold | Insulin prom inh | Insulin prom inh cell count
Cc1ccc(-n2c(=O)[nH]c3c(oc4ccccc43)c2=O)cc1 | -9 | 100 | . | i | 0.89 | 28 | 123
CCN(CC)S(=O)(=O)c1ccc(C)c(NC(=O)COC(=O)C=C(C)C)c1 | . | 94 | . | i | 1 | . | .
O=C1/C(=C\c2ccc3ccccc3c2)CCCc2ccccc21 | -7 | 103 | -0.3 | i | 0.52 | 5 | 233
O=C(NCc1ccccc1)C1=C[C@H](c2coc3ccccc3c2=O)C[C@H](OCCCCO)O1 | 3 | 102 | . | i | 0.99 | . | .
COc1ccc(NC(=O)CC(NCCc2ccccc2)C(=O)O)c(OC)c1 (stereo not given) | 5 | 101 | -0.4 | i | 1.1 | 36 | 106
COC(=O)CCS(=O)(=O)c1ccc(NC(C)=O)cc1 | 0 | 93 | -1.0 | i | 0.81 | 3 | 146
COC(=O)c1c(NC(=O)COC(=O)CCS(=O)(=O)c2ccc(C)cc2)sc(C)c1C | 5 | 255*[activator] | -0.5 | i | 0.92 | 27 | 98
CC1=NN(c2ccccc2)C(=O)/C1=C/c1cc(C)n(C2CC2)c1C | -2 | 96 | . | i | 0.98 | . | .
C=CCNC(=O)COC(=O)CNC(=O)c1cc(Cl)cc([N+](=O)[O-])c1 | 1 | 109 | . | i | 1 | 83* | 37*
COc1ccc(Cc2noc(CN3CCCN(C4Cc5ccccc5C4)CC3)n2)cc1OC | 0 | 99 | . | i | 1.1 | . | .
O=C(Nc1ccccc1)C1CCN(C(=O)c2ccc([N+](=O)[O-])cc2)CC1 | -11 | 101 | . | i | 0.94 | 31 | 99
CN(C)S(=O)(=O)c1ccc(NC(=O)COC(=O)C2CC3CCCC(C2)C3=O)cc1 (stereo not given) | 1 | 91 | . | i | 1.1 | -17 | 187
CCOc1ccc(S(=O)(=O)n2cc(-c3ccccc3)c(N)n2)cc1 | -4 | 98 | -2.5 | i | 1.1 | 38 | 155
O=C(CCl)N1N=C(c2cccs2)CC1c1ccco1 (stereo not given) | -5 | 99 | . | i | 1.2 | . | .
Cc1ccc(S(=O)(=O)N(Cc2ccccc2)c2ccccc2C(=O)NCc2ccco2)cc1 | 15 | 102 | -2.1 | i | 1 | -17 | 85
CCCCCC1CC(CC(=O)NC(=S)Nc2ccc([N+](=O)[O-])cc2)C(=O)O1 (stereo not given) | -6 | 97 | 0.2 | i | 0.9 | 35 | 130
NC(=O)C1CCN(c2cc(Cl)ccc2[N+](=O)[O-])CC1 | . | 95 | . | i | 1 | . | .
Cc1snc(S(=O)(=O)/C(C#N)=N\Nc2ccccc2)c1C#N | 2 | 110 | -1.7 | i | 0.95 | 4 | 159
CC(C)n1c(CNC(=O)c2ccccc2)nc2ccccc21 | 2 | 107 | -0.5 | i | 0.93 | . | .
COc1ccc(Cn2c(CCC(=O)Nc3ccc(C)c(C)c3)nc3cccnc32)cc1 | -3 | 100 | 2.6 | i | 0.9 | 7 | 106
CCCC(=O)Nc1sc2c(c1C#N)CCCC2 | 7 | 100 | 1.0 | i | 0.91 | 32 | 106
O=c1c2cc(-c3ccccc3)sc2ncn1-n1cccc1 | 0 | 109 | -2.1 | i | 0.86 | 0 | 95
Cc1c(CCO)c(=O)n(C)n1C(=O)c1ccc(F)cc1 | -2 | 98 | -1.9 | i | 0.97 | 10 | 70
CCOC(=O)CC(=O)CSc1nc2c(sc(=S)n2-c2ccc(OCC)cc2)c(=O)[nH]1 | -19 | 33 | -3.1 | i | 1 | -22 | 59
CCOc1cc(/C=C/C(=O)c2ccc(O)cc2)ccc1OCC(=O)N(C)C | -10 | 107 | 0.0 | i | 1 | . | .
Next part:
SMILES | PKD1 kinase inh | RGS16-Gao HTS | GALR2 agonist | HSV replic up | HSV replic up primary fold | Insulin prom inh | Insulin prom inh cell count
COc1ccc(OC)c(NC(=O)CCN2CCN(c3ccccc3)CC2)c1 | -11 | 103 | -0.9 | i | 0.85 | -6 | 80
O=C1CC(c2ccccc2)Sc2nc(-c3ccccc3)c(-c3ccccc3)n21 (stereo not given) | 0 | 105 | -1.7 | i | 1.2 | . | .
O=C(Cn1c(=O)sc2ccccc21)N1CCOCC1 | -1 | 102 | -3.9 | i | 0.8 | . | .
CC(OC(=O)CCc1nc2ccccc2[nH]c1=O)C(=O)c1ccccc1 (stereo not given) | -3 | 99 | -2.0 | i | 0.97 | -32 | 115
CC(NS(=O)(=O)/C=C/c1ccccc1)c1ccccc1 (stereo not given) | -2 | 100 | . | i | 0.99 | . | .
CCOc1ccc(OCCCC(=O)Nc2nc3ccccc3[nH]2)cc1 | 1 | 103 | . | i | 0.8 | . | .
CCC(=O)Nc1ccc(/C(C)=N/NC(=O)c2c(Br)c(C)nn2C)cc1 | 0 | 110 | -0.8 | i | 0.79 | 52 | 130
COc1ccccc1N1CCN(C(=O)c2ccc(CN3CCc4ccccc4C3)cc2)CC1 | 5 | 102 | -2.7 | i | 0.57 | 0 | 105
CC(C)CCNC(=O)C1CCC(CNc2c(N3CCCC3)c(=O)c2=O)CC1 (stereo not given) | . | 101 | . | i | 1.1 | . | .
O=C(COc1ccccc1[N+](=O)[O-])Nc1ccc(N2CCN(C(=O)c3cccs3)CC2)cc1 | -2 | 99 | . | i | 0.72 | . | .
Cc1nc(NC(=O)c2ccc(Cl)cc2)sc1Cc1ccc2c(c1)OCO2 | -3 | 125 | -0.2 | i | 0.71 | -1 | 58
Nc1cc(=O)[nH]c(SCC(=O)Nc2cccc(Cl)c2Cl)n1 | -5 | 112 | . | i | 0.9 | -21 | 81
O=S(=O)(c1ccc2ncn(O)c2c1)N1CCOCC1 | 2 | 104 | . | i | 0.96 | -25 | 65
NC(=O)C1CCN(C(=O)CCSc2ccccc2)CC1 | -10 | 95 | -1.8 | i | 0.92 | -7 | 155
CCN(CC)c1ccc(NC(=O)c2cccc(C)c2OC)c(C)c1 | -1 | 99 | -0.9 | i | 0.81 | 26 | 150
Cc1[nH]c2ccccc2c1C(C#N)(C#N)C1C(=O)c2ccccc2C1=O | . | 101 | . | i | 1.1 | . | .
O=C(OCCNc1nc(-c2ccccc2)nc2ccccc12)c1cccnc1 | 2 | 98 | . | i | 1.1 | . | .
O=C(NCCSc1ccccc1)c1ccccc1 | -6 | 99 | -2.2 | i | 0.92 | -12 | 83
COc1ccccc1OCC(=O)NC1CCCCCC1 | 7 | 86 | -1.3 | i | 0.93 | . | .
CCOC(=O)C(=O)Nc1ccc(OCc2ccccc2)cc1 | -10 | 104 | . | i | 0.91 | . | .
O=C(CSc1nncs1)N1CCN(S(=O)(=O)c2ccccc2)CC1 | -2 | 105 | . | i | 1.1 | 29 | 44
CCSc1cc(C)nc2c(-c3ccc(Cl)cc3)c(C)nn12 | 6 | 96 | 0.9 | i | 0.91 | 38 | 74
Cc1ccc2c(c1)c1c(n2CC(O)CNC(C)(C)C)CCCC1 (stereo not given) | -2 | 102 | 0.6 | i | 0.7 | . | .
Cc1ccc(S(=O)(=O)Nc2cccc(CP(=O)(c3ccccc3)c3ccccc3)c2)cc1 | . | 98 | . | i | 0.91 | . | .
CCCc1cc(=O)[nH]c(SCC(=O)Nc2ccc(OC(F)F)cc2)n1 | -13 | 103 | -2.9 | i | 0.87 | -26 | 98

Compound profiles (already shown).
`COc1ccc(OC)c(NC(=O)CCN2CCN(c3ccccc3)CC2)c1` across the screens: PKD1 kinase inh: -11; RGS16-Gao HTS: 103; GALR2 agonist: -0.9; HSV replic up: i; HSV replic up primary fold: 0.85; Insulin prom inh: -6; Insulin prom inh cell count: 80
`O=C(NCCSc1ccccc1)c1ccccc1` across the screens: PKD1 kinase inh: -6; RGS16-Gao HTS: 99; GALR2 agonist: -2.2; HSV replic up: i; HSV replic up primary fold: 0.92; Insulin prom inh: -12; Insulin prom inh cell count: 83
`CC(NS(=O)(=O)/C=C/c1ccccc1)c1ccccc1` (stereo not given) across the screens: PKD1 kinase inh: -2; RGS16-Gao HTS: 100; GALR2 agonist: .; HSV replic up: i; HSV replic up primary fold: 0.99; Insulin prom inh: .; Insulin prom inh cell count: .

(continued)
SMILES | PKD1 kinase inh | RGS16-Gao HTS | GALR2 agonist | HSV replic up | HSV replic up primary fold | Insulin prom inh | Insulin prom inh cell count
Cc1nnnn1-c1ccc(CC(=O)O)cc1 | 1 | 106 | . | i | 0.97 | 22 | 146
Cc1ccc(Nc2ncccc2C(N)=O)cc1[N+](=O)[O-] | -3 | 102 | 0.6 | i | 0.93 | . | .
COc1ccc(C2(CNC(=O)c3ccccc3[N+](=O)[O-])CCOCC2)cc1 | -2 | 104 | . | i | 0.97 | -20 | 134
CC(C)NC(=S)N/N=C/c1sc(N2CCCCC2)nc1-c1cccs1 | -2 | 101 | 0.3 | i | 1 | -18 | 67
COC(=O)c1nc(NC(=O)C(C)C)n[nH]1 | -1 | 109 | -3.5 | i | 1 | -52 | 114
Cn1cc(CN2CCCC(C(=O)c3nccn3C)C2)c(-c2cccc(Cl)c2)n1 (stereo not given) | -1 | 102 | . | i | 1.1 | . | .
COC(=O)/C(C#N)=C/c1ccc(N2CCOCC2)c([N+](=O)[O-])c1 | . | 101 | . | i | 1 | . | .
Cc1ccccc1OCC(=O)OCC(=O)Nc1ccc(N2CCOCC2)cc1 | 1 | 101 | . | i | 0.92 | . | .
O=C(CNCCO)NC12CC3CC(CC(C3)C1)C2 | -1 | 81 | -1.7 | i | 1 | . | .
CCOc1ccc(C(=O)NCC(=O)OC2CCOC2=O)cc1OCC (stereo not given) | -6 | 101 | -1.5 | i | 1 | -40 | 42
COc1ccc(-c2nc3ccccc3o2)cc1NC(=O)c1ccc(Br)o1 | -8 | 93 | -0.4 | i | 0.94 | . | .
COc1cc(C2C3=C(CC(C)(C)CC3=O)OC3=C2C(=O)CC(C)(C)C3)cc([N+](=O)[O-])c1O | -2 | 41 | . | i | 0.96 | . | .
O=C(N/N=C/c1ccc(O)cc1)c1ccc(NC(=O)c2ccccc2Br)cc1 | 2 | 99 | -3.0 | i | 0.95 | 27 | 107
CCN=C1SC(CC(=O)Nc2ccc(N3CCOCC3)cc2)C(=O)N1CC (stereo not given) | 2 | 94 | -1.7 | i | 1.1 | 0 | 124
CCOC(=O)c1ccc(-n2c(C)nc3ccccc3c2=O)cc1 | -13 | 92 | -2.6 | i | 0.88 | 29 | 82
O=C(COC(=O)CNC(=O)c1ccccc1Cl)Nc1ncc(C(F)(F)F)cc1Cl | -1 | 97 | -0.6 | i | 1 | -14 | 81
